VDR inhibitor – Inhibitors of the vitamin D receptor (VDR): qHTS. Potency, µM, inactives show max response, negative = inhibition, hits mostly inhibitors. hit rate 0.93% among 400,000. VDR-SRC2-3 peptide fluorescence polarization, 2 h; active = well fitted inhibition curve with a large enough effect; inconclusive = small, poorly fitted or top-dose-only effect, or another doubt; inactive = no such curve, though single readings can be large or run the other way; also: series mostly up to about 120 µM
Target sequence (P11473 whole entry, looked up): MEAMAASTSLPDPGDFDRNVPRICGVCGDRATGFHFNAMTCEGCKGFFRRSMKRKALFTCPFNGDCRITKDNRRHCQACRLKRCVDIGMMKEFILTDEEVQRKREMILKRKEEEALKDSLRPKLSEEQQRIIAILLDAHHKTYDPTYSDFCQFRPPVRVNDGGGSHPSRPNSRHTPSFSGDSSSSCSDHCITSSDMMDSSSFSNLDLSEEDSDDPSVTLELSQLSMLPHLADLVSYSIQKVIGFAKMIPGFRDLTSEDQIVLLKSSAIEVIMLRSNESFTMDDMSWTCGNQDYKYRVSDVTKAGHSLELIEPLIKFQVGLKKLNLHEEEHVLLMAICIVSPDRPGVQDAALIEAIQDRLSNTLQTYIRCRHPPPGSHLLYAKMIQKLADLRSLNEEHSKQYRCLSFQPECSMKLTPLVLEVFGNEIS
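The screen uses fluorescence polarization to detect compounds that interfere with recruitment of the SRC2-3 coactivator peptide to VDR; plates are read after 2 h at room temperature.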
* hit, by the source's call; & = joins results of further samples; [ ] = remark or other dose. % is scaled to controls: 0 for no effect and ±100 for the full control effect; potency is read from the fitted curve at half-maximal effect.

What do the screens show for `COC(=O)Nc1ccc(N=C(N)N[N+](=O)[O-])cc1`?
VDR inhibitor: 26%

Results for CC(NCc1ccccc1C(F)(F)F)C(O)c1ccccc1 (stereo not given) ?
VDR inhibitor: 0%

How did CCN(CC)c1ccc(/C=N/c2sc3c(c2C#N)C2CCN3CC2)c(O)c1 do in these assays?
VDR inhibitor: -5%

What do the screens show for `COc1ccc(CN2Cc3cnnn3-c3ccccc3C2C#N)cc1` (stereo not given)?
VDR inhibitor: 20µM*

What do the screens show for `C/C=C1/C[N+]2(C)CCC34C(=C(C=O)[C@H]1C[C@@H]32)Nc1ccccc14` (stereo not given in full)?
VDR inhibitor: 1%

Results for CN1CCc2cc(O)cc3c2C1Cc1ccc(O)c(O)c1-3 (stereo not given) ?
VDR inhibitor: -20%

Results for COc1ccccc1-n1c(-c2ccccc2Br)nc2ccccc2c1=O ?
VDR inhibitor: -12%

How did Cc1ccc(Cn2cccc(C(=O)Nc3ccc(C)c(Cl)c3)c2=O)cc1 do in these assays?
VDR inhibitor: 9%

How did N#CCCn1cc(C(=O)Nc2ccccc2Br)c(-c2ccc([N+](=O)[O-])cc2)n1 do in these assays?
VDR inhibitor: -2%

How did NC1=NC(=O)N2CC12 (stereo not given) do in these assays?
VDR inhibitor: 0%&-12%

What do the screens show for `Oc1ccc(/C=N/NP(=S)(c2ccccc2)c2ccccc2)cc1O`?
VDR inhibitor: 4%

How did CC1CN(O)C2CCc3c(no[n+]3[O-])C12O (stereo not given) do in these assays?
VDR inhibitor: -2%

Results for C[C@@H]1Cc2c(Cl)cc(C(=O)N[C@@H](Cc3ccccc3)C(=O)O)c(O)c2C(=O)O1 ?
VDR inhibitor: 0%

What do the screens show for `O=C(CN1CCOCC1)c1ccc(Br)cc1`?
VDR inhibitor: -24%

Results for CCOC(=O)[C@]12Cc3c(cc(OC)c(OC)c3OC)[C@H]1N(Cc1ccccc1)C(=O)c1ccccc12 ?
VDR inhibitor: -8%

Results for O=Cc1cn(Cc2cccc([N+](=O)[O-])c2)c2ccccc12 ?
VDR inhibitor: 1%

What do the screens show for `CC(C)OC1CCCC(O)C1CC(=O)O` (stereo not given)?
VDR inhibitor: 1%

What do the screens show for `Oc1ccc2c3c1O[C@H]1[C@@H](O)CC[C@@]4(O)[C@@H](C2)N(CC2CCC2)CC[C@]314`?
VDR inhibitor: -4%&-1%

Results for O=c1c2ccccc2[nH]c(=S)n1-c1ccc(Br)cc1 ?
VDR inhibitor: 5%

What do the screens show for `O=C1NC(=O)C(C2CCCCCC2)C(=O)N1`?
VDR inhibitor: 5%

Results for CON(C)C(=O)Nc1ccc(Br)cc1 ?
VDR inhibitor: 10%

What do the screens show for `[N-]=[N+]=CC(=O)OCC(N)C(=O)O` (stereo not given)?
VDR inhibitor: 6%

Results for Ic1ccccc1CN[C@@H]1C2CCN(CC2)[C@@H]1C(c1ccccc1)c1ccccc1 ?
VDR inhibitor: 1%

What do the screens show for `COc1ccccc1OCCCn1cc(C(=O)C2CC2)c2ccccc21`?
VDR inhibitor: -2%

What do the screens show for `CCCN1CCc2cc(O)cc3c2C1Cc1ccc(O)c(O)c1-3` (stereo not given)?
VDR inhibitor: 25µM*

How did Ic1ccccc1CNC1C2CCN(CC2)C1C(c1ccccc1)c1ccccc1 (stereo not given) do in these assays?
VDR inhibitor: -13%

How did C[C@]12CCC(=O)C=C1CC[C@@H]1[C@@H]2CC[C@@]2(C)[C@H]1CC[C@]2(C)O do in these assays?
VDR inhibitor: -18%&-7%

Results for CCOc1ccc(-n2c(O)c(C=Nc3ccc(N(CC)CC)cc3)c(=O)[nH]c2=O)cc1 ?
VDR inhibitor: -23%

Results for COc1ccc(CNCCc2ccc3c(c2)OCO3)c(OC)c1OC ?
VDR inhibitor: 2%

Results for O=C(CN1CCOCC1)NCC(=O)Nc1ccc(Br)cc1C(=O)c1ccccc1 ?
VDR inhibitor: 16%

Results for CCCCCn1c(=O)c(C(=O)Nc2cccc(C)n2)c(O)c2ccccc21 ?
VDR inhibitor: -16%

How did CCC1(O)CCC2C3CCC4=CC(=O)CCC4C3CCC21CC (stereo not given) do in these assays?
VDR inhibitor: -17%

How did CC(C)c1ccc(NC(=O)N2C[C@H]3C[C@@H](C2)c2cccc(=O)n2C3)cc1 do in these assays?
VDR inhibitor: 6%

What do the screens show for `Cc1cccnc1-n1c(C)nc2ccccc2c1=O`?
VDR inhibitor: inconclusive

How did CN1CCN(Cc2c(F)cccc2Cl)CC1 do in these assays?
VDR inhibitor: 3%

How did CC(C)CC1C(C#N)=C(N)Oc2c1c(=O)oc1ccccc21 (stereo not given) do in these assays?
VDR inhibitor: inconclusive

What do the screens show for `CC[C@H]1C2C[C@H]3[C@@H]4N(C)c5ccccc5C45C[C@H](C2[C@H]5O)N3[C@@H]1O` (stereo not given in full)?
VDR inhibitor: -5%

Results for CC(=O)NC(Cc1ccc(N(CCCl)CCCl)cc1)C(=O)NC(C(=O)O)C(C)C (stereo not given) ?
VDR inhibitor: -12%

Results for Clc1ccc2c(c1)C(c1ccccc1Cl)=NCc1nnc(Br)n1-2 ?
VDR inhibitor: -13%

What do the screens show for `COC(=O)C1=C(c2ccc(F)cc2OCc2ccccc2)C[C@@H]2CC[C@H]1N2C(=O)NCCOc1ccccc1Cl`?
VDR inhibitor: -2%

Results for O=S(=O)(c1ccc(Cl)cc1)N1CCCCC1c1cccnc1 (stereo not given) ?
VDR inhibitor: 0%

How did NCCc1ccccn1 do in these assays?
VDR inhibitor: 6%

How did COc1ccc2c3c1OC1CC(O)C=CC31CCN(C)C2 (stereo not given) do in these assays?
VDR inhibitor: -5%&-22%

What do the screens show for `Cc1ccc(-n2c(O)c(C=N)c(=O)n(-c3ccc(C)cc3)c2=O)cc1`?
VDR inhibitor: -18%

What do the screens show for `Cc1nccc2c1[nH]c1ccc(Br)cc12`?
VDR inhibitor: -7%

Entries listed so far containing bromine, in the order listed:
Results for COc1ccccc1-n1c(-c2ccccc2Br)nc2ccccc2c1=O ?
VDR inhibitor: -12%

How did N#CCCn1cc(C(=O)Nc2ccccc2Br)c(-c2ccc([N+](=O)[O-])cc2)n1 do in these assays?
VDR inhibitor: -2%

What do the screens show for `O=C(CN1CCOCC1)c1ccc(Br)cc1`?
VDR inhibitor: -24%

Results for O=c1c2ccccc2[nH]c(=S)n1-c1ccc(Br)cc1 ?
VDR inhibitor: 5%

Results for CON(C)C(=O)Nc1ccc(Br)cc1 ?
VDR inhibitor: 10%

Results for O=C(CN1CCOCC1)NCC(=O)Nc1ccc(Br)cc1C(=O)c1ccccc1 ?
VDR inhibitor: 16%

Results for Clc1ccc2c(c1)C(c1ccccc1Cl)=NCc1nnc(Br)n1-2 ?
VDR inhibitor: -13%

What do the screens show for `Cc1nccc2c1[nH]c1ccc(Br)cc12`?
VDR inhibitor: -7%

(listing goes on)
How did c1ccc2sc(N3CCNCC3)nc2c1 do in these assays?
VDR inhibitor: -4%

What do the screens show for `CCOC(=O)c1ccc(NC(=O)c2c(O)[nH]c(=O)[nH]c2=O)cc1`?
VDR inhibitor: -8%

How did Fc1ccccc1N1CCN(Cc2c(F)cccc2F)CC1 do in these assays?
VDR inhibitor: -7%

Results for CCC1CO/C(=C(\C(Cl)=C(Cl)Cl)[N+](=O)[O-])N1Cc1ccc(Cl)nc1 (stereo not given) ?
VDR inhibitor: 7%

What do the screens show for `C[S@@](=O)CCCCN=C=S`?
VDR inhibitor: inconclusive

What do the screens show for `CCC1(C)OC(c2ccccc2)=C/C(=C/C=C2C(=O)NC(=O)NC2=O)O1` (stereo not given)?
VDR inhibitor: -15%

How did CCC(=O)Nc1cc(C(=O)N2CCC3(CC2)OCCO3)ccc1S(=O)(=O)c1ccc(C)cc1 do in these assays?
VDR inhibitor: 11%

How did CN1C(=O)C(=Cc2sc(=O)n(-c3ccccc3)c2N(C)C)C(=O)N(C)C1=O do in these assays?
VDR inhibitor: -25%

How did Cc1cc(/C=C2\C(=O)NC(=O)N(c3ccc(F)cc3)C2=O)c(C)n1-c1cccc(C(=O)O)c1 do in these assays?
VDR inhibitor: 9%

Results for N#Cc1ccc(NC(=O)CN2CCCC2)cc1Cl ?
VDR inhibitor: -12%

Results for C=CCn1c(O)c(C(CC)=NCc2cc(OC)cc(OC)c2)c(=O)[nH]c1=O ?
VDR inhibitor: -5%

How did COc1ccc(OC)c(-n2c(O)c(C=Nc3c(C)n(C)n(-c4ccccc4)c3=O)c(=O)[nH]c2=S)c1 do in these assays?
VDR inhibitor: 5%

How did Cc1cc(C)cc(NC(=O)CN2C(=O)CN=C(c3ccccc3)c3cc(Cl)ccc32)c1 do in these assays?
VDR inhibitor: 10%

How did COc1ccc(OC)c(-n2c(O)c(C=NCc3ccc4c(c3)OCO4)c(=O)[nH]c2=O)c1 do in these assays?
VDR inhibitor: -7%

What do the screens show for `O=C(Oc1ccccc1)N1CCC2(CC1)CN(C(c1ccccc1)c1ccccc1)C2`?
VDR inhibitor: 10%

How did COc1ccc(-n2c(C)nc3cc(C(=O)N4CCC5(CC4)OCCO5)ccc32)cc1 do in these assays?
VDR inhibitor: 12%

Results for CCCCCC1C(=O)O[C@H](C)[C@@H](NC(=O)c2cccc(NC=O)c2O)C(=O)OC(C)C1OC(=O)CC(C)C (stereo not given in full) ?
VDR inhibitor: -3%

How did NCCCP(=O)(O)CCc1ccccc1 do in these assays?
VDR inhibitor: -4%

What do the screens show for `c1ccc(CNCCc2ccc3c(c2)OCO3)nc1`?
VDR inhibitor: 10%

What do the screens show for `CCOC(=O)C1(c2ccccc2)CCN(CC(=O)Nc2ccc(C)cc2)CC1`?
VDR inhibitor: -4%

Results for O=C1NC(=O)C2(Cc3ccccc3N3CCCC32)C(=O)N1Cc1ccccc1 (stereo not given) ?
VDR inhibitor: inconclusive

How did c1cc2c(cc1CN1CCNCC1)OCO2 do in these assays?
VDR inhibitor: -2%

Results for CC1CN1P(=S)(c1ccccc1)N1CC1C (stereo not given) ?
VDR inhibitor: 6%

Results for CCOc1cc2c(cc1OCC)-n1cccc1C(c1ccc(OC)c(OC)c1)NC2 (stereo not given) ?
VDR inhibitor: -5%

What do the screens show for `N#C/C=C/C#N`?
VDR inhibitor: -9%

How did CCC(=NCCc1ccccc1)c1c(O)n(C)c(=O)n(C)c1=O do in these assays?
VDR inhibitor: 10%

How did CN1CCN(Cc2ccc(Br)s2)CC1 do in these assays?
VDR inhibitor: 6%

Results for Cc1cc(C)nc(/N=C(\N)c2c(O)[nH]c(=O)[nH]c2=O)n1 ?
VDR inhibitor: 6%

How did CCCCN1C(=O)/C(=C/c2ccc(N(C)C)cc2)C(=O)N(Cc2ccco2)C1=O do in these assays?
VDR inhibitor: 13%

Results for CCCCCCn1c(=O)c(C(=O)Nc2ncccc2O)c(O)c2ccccc21 ?
VDR inhibitor: -22%

What do the screens show for `CCc1ccc(-n2nc(C)c3c2NC(=O)CSC3c2ccccc2C)cc1` (stereo not given)?
VDR inhibitor: 0%

How did Cc1ccc(CN2CCN(C)CC2)c(C)c1 do in these assays?
VDR inhibitor: -8%

What do the screens show for `CC(C)(C)C(=O)O[C@H]1CC[C@@]2(C)C(=CC(=O)C3C2CC[C@]2(C)C(=O)CCC32)C1` (stereo not given in full)?
VDR inhibitor: -5%

What do the screens show for `COc1ccc(NP(=O)(Oc2ccccc2OC)Oc2ccccc2OC)cc1`?
VDR inhibitor: -13%

What do the screens show for `CC1(C)C2([N+](=O)[O-])CN3CN(C2)CC1([N+](=O)[O-])C3`?
VDR inhibitor: 14%

Results for CC(C)(C)NS(=O)(=O)c1ccc(OCC(=O)N2CCN(Cc3ccccc3)CC2)cc1 ?
VDR inhibitor: -13%

Results for CCCNC(=O)N1[C@H]2CC[C@@H]1C(C(=O)OC)=C(c1ccc(OC)c(OC)c1)C2 ?
VDR inhibitor: -7%

How did CCNC[C@H](O)c1cccc(O)c1 do in these assays?
VDR inhibitor: -2%

What do the screens show for `Cc1cc(NC(=O)CCl)nn1C`?
VDR inhibitor: -4%

How did O=C1Nc2ccccc2C(c2ccccc2)=NC1O (stereo not given) do in these assays?
VDR inhibitor: 13%

What do the screens show for `CC(=O)NC(Cc1ccc(N(CCCl)CCCl)cc1)C(=O)O` (stereo not given)?
VDR inhibitor: -11%

What do the screens show for `CSc1ccc(CN2CCN(C(=O)COc3cccc(C)c3)CC2)cc1`?
VDR inhibitor: 13%&7%

What do the screens show for `COC(=O)C1=C(C(=O)OC)SC2(S1)C(C(=O)OC)=C(C(=O)OC)Sc1c2ssc1=O`?
VDR inhibitor: 2µM*

How did c1cc(CNCCc2ccc3c(c2)OCO3)ccn1 do in these assays?
VDR inhibitor: -14%

Results for CCC(NC(=O)OC(C)(C)C)C(=O)Oc1cc(C)cc2oc(=O)c3c(c12)CCC3 (stereo not given) ?
VDR inhibitor: 1%

Results for Cc1cc(C(=O)OCC(=O)Nc2ccccc2F)c(C)n1C1CC1 ?
VDR inhibitor: 7%

Results for COc1ccc(CC(=O)N2CCN(C)CC2)cc1OC ?
VDR inhibitor: 21%

How did CC(C)CCCn1c(O)c(/C=C2/C=CC=N2)c(=O)[nH]c1=O do in these assays?
VDR inhibitor: 13%

How did Cc1ccc(/C=C2\C(=O)NC(=O)N(Cc3ccccc3Cl)C2=O)o1 do in these assays?
VDR inhibitor: 105%[activator]

What do the screens show for `O=C(c1ccc(F)c([N+](=O)[O-])c1)N1CC2CC(C1)c1cccc(=O)n1C2` (stereo not given)?
VDR inhibitor: -8%

How did CCCC(=O)OCC[N+](C)(C)C do in these assays?
VDR inhibitor: -4%&-1%

What do the screens show for `CC(=O)OC1CC[C@@]2(C)C3CC[C@]4(C)C(=O)CCC4C3CC[C@H]2C1` (stereo not given in full)?
VDR inhibitor: -9%

Results for CC1=CC(=O)OC2CC3OC4C[C@@H](C)C5OC6CC7O[C@]8(C)C/C=C\C9OC%10CC%11OC(CC(C)CO)CC(O)[C@]%11(C)OC%10CC9OC8C[C@]7(C)O[C@]6(C)CCC5OC4C[C@]3(C)OC12 (stereo not given in full) ?
VDR inhibitor: -20%

The list is partial; the hit share may differ from the screen's.
